NS1 function inh = blocks influenza NS1 protein function; S. cerevisiae slowed by influenza A NS1, growth recovery by OD600; Potency, µM (series often up to 46.1 µM), for inactives: top-dose activity, positive = more growth; 270,000 compounds, 0.4% hits; active means well fitted rising curve with a large enough effect; inconclusive means small, poorly fitted or top-dose-only effect; inactive means no such curve, though single readings can be large or run the other way; note: nearly all actives have a fitted effect of over 50% in size
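Read-out: OD600 growth recovery of NS1-expressing budding yeast. Cells grown overnight at 30C in -URA glucose medium, washed, resuspended and diluted 1:100 in 2% galactose assay medium, pH 6.0. Same strain lacking NS1 served as positive control.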
StopGo reporter = lowers the luciferase signal of an FMDV 2A StopGo reporter. Potency, µM (top dose mostly 57.9 µM), for inactives: at the highest dose signal change, negative = less light. 410,000 compounds, 1.2% hits. human cells with a luciferase reporter of 2A StopGo recoding; control for the full effect not named in the record; active = well fitted falling curve with a large enough effect; inconclusive = small, poorly fitted or top-dose-only effect; inactive = no such curve, though single readings can be large or run the other way; tested in HEK293T cells; note: % is set by controls: 0 for no effect and ±100 for the full control effect; nearly all actives have a fitted effect of over 45% in size; luciferase light after 4 h
RE007 growth inh = less growth of the S. pombe RE007 Vpr strain. 360,000 compounds, 0.21% hits. S. pombe RE007 Vpr strain, BacTiter-Glo ATP luminescence, 24 h; control for the full effect not named in the record. Potency, µM (doses to about 92.2 µM), for the others: top-dose activity change, negative = less growth. AID 651644; active = well fitted falling curve with a large enough effect; inconclusive = small, poorly fitted or top-dose-only effect; inactive = no such curve, though single readings can be large or run the other way;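 note: % is set by controls: 0 for no effect and ±100 for the full control effect; nearly all actives have a fitted effect of over 50% in size; the assay follows cell death caused by Vpr and the record does not say whether a fall means rescue or toxicity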
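Fission yeast RE007 carrying one integrated HIV-1 vpr copy, seeded at OD 0.01 in PMG+AL medium with 23 nL pinned compound. Grown 24 h at 30 degrees; viability read by BacTiter-Glo luminescence after 5 min.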
Cruzain inh noDet = cruzain (T. cruzi) inhibition without detergent; purified cruzain, Z-FR-AMC fluorescence, no detergent; Potency, µM, for the others: max response, negative = inhibition, hits mostly inhibitors; P25779; 200,000 compounds, 2.3% hits; AID 1476;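 note: plate controls were enzyme without inhibitor for no effect and buffer without enzyme for full effect; nearly all actives have a fitted effect of over 40% in size; top concentration of the series not given in the record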
Target sequence (P25779 123-467 limits assumed): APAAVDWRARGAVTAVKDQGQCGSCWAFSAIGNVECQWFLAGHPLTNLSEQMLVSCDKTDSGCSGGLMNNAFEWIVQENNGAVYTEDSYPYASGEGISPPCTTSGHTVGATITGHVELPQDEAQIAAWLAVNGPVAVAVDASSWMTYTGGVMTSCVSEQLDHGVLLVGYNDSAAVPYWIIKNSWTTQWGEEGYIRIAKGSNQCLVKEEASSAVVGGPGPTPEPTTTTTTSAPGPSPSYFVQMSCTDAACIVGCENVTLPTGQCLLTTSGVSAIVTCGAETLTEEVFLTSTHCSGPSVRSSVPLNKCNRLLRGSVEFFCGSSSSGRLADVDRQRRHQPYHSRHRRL
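Detergent-free condition (0.00005% Triton X-100) in acetate buffer pH 5.5 with DTT. 1.5 nM enzyme and compound were pre-mixed 15 min, then 2 uM Z-FR-AMC substrate added; reaction progress from fluorescence change between first and third reads (60 s).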
SARS PLP yeast = blocks SARS-CoV papain-like protease in a yeast assay; 330,000 compounds, 0.19% hits; Potency, µM (titrated, usually from 32.9 µM), for the others: at the top dose activity, positive = growth rescue; S. cerevisiae expressing SARS-CoV PLpro, growth rescue; control for the full effect not named in the record; active means well fitted rising curve with a large enough effect; inconclusive means small, poorly fitted or top-dose-only effect; inactive means no such curve, though single readings can be large or run the other way; note: 0% is about no effect; nearly all actives have a fitted effect of over 55% in size; growth read by luminescence after 48 h
Cruzain Triton = blocks cruzain activity in presence of Triton detergent; P25779; purified cruzain, Z-FR-AMC fluorescence, 0.01% Triton; Potency, µM, inactives show max response, negative = inhibition, hits mostly inhibitors; 200,000 compounds, 0.43% hits; AID 1478;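 note: plate controls were neutral wells for no effect and buffer without enzyme for full effect; nearly all actives have a fitted effect of over 40% in size; top concentration of the series not given in the record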
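Enzyme 1.5 nM, Z-FR-AMC 2 uM, NaOAc 100 mM pH 5.5, DTT 5 mM, Triton X-100 0.01%; 15 min RT compound preincubation; kinetic ex360/em450, 60 s delta.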
MARV entry inh = blocks Marburg virus binding to or entry into cells | Marburg virus pseudotyped entry inhibition, cell reporter; control for the full effect not named in the record; about a third of the inactives were read at about 46 µM | Potency, µM (series often up to 37.8 µM), for the others: at the top dose activity change, negative = inhibition, most hits filed as inhibitors | 300,000 compounds, 1.8% hits; active = well fitted inhibition curve with a large enough effect; inconclusive = small, poorly fitted or top-dose-only effect, or effect the other way; inactive = flat fitted curve, though single readings scatter; tested in HEK293 cells; about a fifth of its hits are not listed in these tables; note: % is set by controls: 0 for no effect and ±100 for the full control effect; luciferase read-out
Lassa entry inh = Lassa virus entry inhibition | Lassa virus pseudotype entry inhibition, cell reporter; control for the full effect not named in the record | Potency, µM (top dose mostly 37.9 µM), inactives show at the highest dose activity change, negative = inhibition, usual class: inhibitors | 300,000 compounds, 1.2% hits | AID 540256; active means well fitted inhibition curve with a large enough effect; inconclusive means small, poorly fitted or top-dose-only effect, or effect the other way; inactive means flat fitted curve, though single readings scatter; tested in HEK293 cells; note: % is set by controls: 0 for no effect and ±100 for the full control effect; nearly all actives have a fitted effect of over 50% in size; luciferase read-out
Active calls of the source: *; ? = inconclusive; / = not tested or not shown; [ ] = another dose, or the depositor's remark. Unless noted, calls come from the whole dose curve; as a rule, active = well fitted curve in the direction sought with a large enough effect; inconclusive = small, poorly fitted or top-dose-only effect, or another doubt; inactive = no such curve, though single readings can be large; an effect the other way counts as inactive or inconclusive. Potency is the fitted concentration of half-maximal effect. Outcome played no part in choosing rows (roughly 4.7% active in at least one column).

mol	NS1 function inh	StopGo reporter	RE007 growth inh	Cruzain inh noDet	SARS PLP yeast	Cruzain Triton	MARV entry inh	Lassa entry inh
O=C(CN(Cc1ccccc1)C1=NCCS1)c1ccccc1	-6.0%	-20.9%	4.2%	5.0%	-0.4%	-0.5%	-16.3%	24.8%
NC(=O)[C@@H]1CCCN1C(=O)c1cc(COc2ccc3c(c2)CCCC3)on1	3.5%	21.6%	6.0%	/	-3.9%	/	16.4%	5.1%
O=[N+]([O-])c1cccc(/C=C/c2nc(C=Nc3ccc4ccccc4c3)c(O)o2)c1	19.3%	7.8%	-16.4%	?	4.9%	-5.2%	23.6%	0.2%
Cc1ccc(C)c(OCCC(=O)OCC(=O)NCc2ccc(F)cc2)c1	-10.2%	66.2%[activator]	-2.8%	/	24.6%	/	19.5%[46.1 µM]	21.5%[46.1 µM]
NC(=O)C(Cc1ccccc1)NC(=O)C12CC3CC(CC(C3)C1)C2 (centres undefined)	10.3%	6.9%	3.4%	/	6.8%	/	?	-5.0%
O=C(CN1C(=O)NC2(CCc3ccccc32)C1=O)Nc1ccc(N2CCOCC2)cc1 (centres undefined)	-0.4%	7.6%	-8.9%	8.2%	11.3%	-1.3%	?	-14.2%
Cc1ccccc1-c1cc(C(=O)Nc2sc(C(=O)OC(C)C)c(C)c2C#N)c2ccccc2n1	23.8%	?	5.5%	10µM*	-3.3%	0.2%	11.6µM*	?
CCOc1ccc(NC(=O)NC2CC(=O)N(c3ccc(OC)cc3)C2)cc1 (centres undefined)	/	6.4%	-17.4%	/	-4.4%	/	0.9%[46.1 µM]	6.2%[46.1 µM]
CCOC(=O)c1c(-c2ccc(C)cc2)csc1NC(=O)CCN1CCOCC1	-18.7%	-22.4%	/	10.2%	-45.2%	-4.2%	?	?
O=C(NC(=S)NC(CO)Cc1ccccc1)c1ccc(F)cc1 (centres undefined)	2.0%	1.5%	-13.7%	/	-0.7%	/	11.2%[46.1 µM]	8.1%[46.1 µM]
CN1CCN(c2csc3ccc(F)cc3c2=O)CC1	/	42.5%[activator]	/	-7.3%	/	-4.2%	/	17.0%[46.1 µM]
O=C(CSc1nc(-c2ccco2)cc(C(F)(F)F)n1)N1CCc2ccccc2C1	-60.6%	0.0%	-1.2%	23.3%	-1.9%	-20.1%	-13.1%	-18.5%
O=C(COC(=O)CNS(=O)(=O)/C=C/c1ccccc1)NC1CCS(=O)(=O)C1 (centres undefined)	1.4%	5.7%	2.9%	-22.5%	6.9%	-26.8%	17.9%[46.1 µM]	15.8%
Cc1ccc(OCC(=O)N2CCc3ccccc32)c([N+](=O)[O-])n1	6.1%	44.3%[activator]	-11.3%	/	3.5%	/	17.1%[46.1 µM]	?
Cc1ccc(NC(=O)c2ccc3c(c2)NC(=O)c2ccccc2S3)cc1	/	?	/	6.1%	/	0.2%	?	/
COc1ccc(NC(=O)NC2(C(=O)N3CCN(C)CC3)CCCCC2)cc1	4.8%	27.3%	-17.8%	/	0.8%	/	?	/
Cc1ccc(-c2nnc(Nc3ccc(Cl)cc3)c3ccccc23)cc1S(=O)(=O)N1CCOCC1	/	-4.4%	/	-16.6%	/	-5.4%	/	?
CCOC(=O)NC1CCc2cc(OC)c(OC)c(OC)c2-c2ccc(SC)c(=O)cc21 (centres undefined)	/	0.0%	4.1%	/	/	/	/	?
Nc1cccc(Cl)c1N1CCOCC1	-4.2%	-6.9%	-9.4%	1.5%	3.3%	3.1%	5.2%	-0.9%
COc1cc(/C=N/NC(=O)c2c(-c3ccccc3)noc2C)ccc1O	8.2%	?	-5.5%	3.2%	/	-0.2%	?	-9.4%
O=C(CSc1cccc[n+]1[O-])N1CCCCCC1	/	-3.9%	9.0%	/	-0.3%	/	13.9%	?
CCC(=O)Nc1ccc(S(=O)(=O)N2CCOCC2)cc1	-15.3%	/	1.6%	-6.8%	1.3%	4.5%	23.2%	6.4%
CN(c1ccc(OCC(=O)NCc2cccnc2)cc1)S(=O)(=O)c1ccc(Cl)cc1	7.8%	0.0%	-12.6%	/	4.2%	/	?	?
CCOC(=O)c1c(S(=O)(=O)N2CCN(C)CC2)c(C)n(C)c1C	3.0%	17.4%	11.4%	/	-0.3%	/	/	/
CN(C)C(=O)Oc1ccc2nnc3ccnn3c2c1	4.0%	8.2%	-19.8%	/	-0.9%	/	0.6%	-10.7%
COc1cc(CN(CC2CCCO2)C(=O)c2cccs2)cc(OC)c1OC (centres undefined)	-18.7%	-10.9%	-1.1%	/	2.6%	/	/	/
Cc1nc2c(C)cccc2c2c1CCS2	-1.6%	1.8%	-10.6%	/	-1.3%	/	12.0%[14.2 µM]	6.9%
Cc1cc(C)cc(NC(=O)Cn2c3ncccc3c(=O)n2-c2ccc(C)c(C)c2)c1	/	-18.3%	/	1.9%	/	1.6%	/	-7.4%[46.1 µM]
Cc1ccc(-c2cc(-c3ccccc3)nc(N(C)N)n2)cc1	4.7%	16.8%	-7.0%	/	-0.5%	/	/	/
COc1cc(C=O)c(Br)cc1OCc1ccc(C)cc1	-0.3%	/	12.6%	-1.2%	-28.5%	-1.3%	?	6.1%

Continuation:
mol	NS1 function inh	StopGo reporter	RE007 growth inh	Cruzain inh noDet	SARS PLP yeast	Cruzain Triton	MARV entry inh	Lassa entry inh
N#Cc1c2c(c(-n3cnc4ccccc43)n3c1nc1ccccc13)CCC2	23.4%	?	3.2%	-1.1%	-4.7%	1.0%	-13.6%	10.6%
Cc1ccc(SCC(=O)NC(=O)NCCC(C)C)c(C)c1	-3.5%	?	3.1%	/	-0.8%	/	?	-27.5%[46.1 µM]
O=C(NCc1cn2ccccc2n1)c1ccc2c(c1)OCO2	-12.5%	19.7%	-1.9%	-8.8%	6.3%	0.3%	3.6%	-7.5%
Cc1ccc(Nc2nc(Cl)c(C=O)s2)cc1	-0.9%	43.6%[activator]	-16.6%	/	-2.1%	/	/	/
Cc1ccc(N(CC(=O)NCc2ccccc2Cl)S(=O)(=O)c2c(C)noc2C)cc1	12.3%	-5.4%	0.0%	/	1.0%	/	-3.8%[46.1 µM]	-3.7%[46.1 µM]
C[C@H]1CCC(=O)N([C@H](CC#N)Cc2ccccc2)CC1	4.5%	-14.4%	-12.4%	/	7.6%	/	/	/
COc1cc(NC(=O)C2CCC(=O)N2S(=O)(=O)c2ccc(C)cc2)cc(OC)c1 (centres undefined)	-2.8%	1.3%	16.5%	/	0.5%	/	?	5.7%[46.1 µM]
Cc1ccc(NC(=O)COC(=O)CN2C(=O)c3ccccc3C2=O)cc1S(=O)(=O)N(C)C	/	76.2%[activator]	2.6%	/	-1.8%	/	-28.7%[46.1 µM]	8.4%
Cc1ccc(SCc2cc(=O)[nH]c(Nc3nc(C)c4ccccc4n3)n2)cc1	5.2%	?	1.3%	19.1%	3.8%	-5.0%	?	9.7%
CC(C)N(C(=O)CSc1nnc(NC(=O)C2CCC2)s1)C(C)C	-8.2%	23.9%	1.5%	-13.4%	2.0%	1.5%	?	-17.2%
CCc1ccc(NC(=O)Cc2c(C(=O)O)n(C)c3ccccc23)cc1	/	0.9%	3.3%	/	-2.4%	/	18.7%[46.1 µM]	0.6%[46.1 µM]
O=C(Nc1ncccc1O)c1ccc(S(=O)(=O)Nc2ccccc2)cc1	/	-2.6%	0.6%	/	0.3%	/	-20.7%[46.1 µM]	?
O=C(N/N=C/c1c(O)n(C2CC2)c(=S)[nH]c1=O)c1ccccc1	-1.1%	1.0%	-9.9%	/	14.5%	/	/	/
CCc1ccc(-n2c(O)c(/C=N/N3CCCCC3c3cccnc3)c(=O)[nH]c2=O)cc1 (centres undefined)	-3.3%	-18.0%	-10.2%	-1.1%	-12.6%	-2.4%	?	-11.2%
COc1ccc(-c2ccc(-c3nnc(-c4cc(OC)ccc4OC)o3)cc2)cc1	-1.8%	-0.2%	-20.4%	25.1µM*	-4.2%	?	1.1%	-3.2%
N/C(=N\OC(=O)CCCOc1ccccc1)c1cccc(Br)c1	-5.3%	-9.9%	-16.1%	/	-1.5%	/	?	9.4%
CC1(C)C(=O)CC[C@]2(C)C3C(=O)C=C4[C@H]5C[C@@](C)(C(=O)O)CC[C@]5(C)CC[C@]4(C)[C@]3(C)CC[C@@H]12 (some centres undefined)	1.6%	-16.3%	-3.5%	/	0.8%	/	/	/
CC(=NNC(=S)N1CCC1)c1ccccn1	/	10.7%	?	/	/	/	/	?
CCCCCCCCCCNC(=O)CCn1[nH]c(=O)c2ccccc2c1=O	/	-5.9%	-2.7%	/	/	/	0.1%	-14.3%
COc1ccc(NC(=O)CN(C)C(=O)c2cc(-c3ccc(OC)cc3)nc3ccccc23)cc1	/	-9.7%	-7.6%	/	-1.4%	/	?	?
CCN(CC)CCCNc1nc2ccccc2c2nc(-c3ccncc3)nn12	2.4%	-19.8%	2.8%	/	1.3%	/	7.94µM*	?
COCc1cc(C)n(CC(=O)Nc2ccc3c(c2)OCO3)c(=O)c1C#N	-2.9%	20.1%	3.4%	/	0.4%	/	11.4%[46.1 µM]	-1.8%[46.1 µM]
O=C(NC(=S)NCCc1ccccc1)c1ccccc1	2.3%	25.4%	-18.6%	-0.7%	16.7%	-1.4%	?	2.9%
O=S(=O)(c1cccc(-c2nc3ccccc3s2)c1)N1CCOCC1	5.5%	26.2%	-8.9%	17.5%	7.0%	-9.1%	-20.1%	-0.2%
CCOc1ccc(N2CC(C(=O)Nc3ncccc3C)CC2=O)cc1 (centres undefined)	3.0%	1.2%	-5.2%	-5.1%	-4.4%	3.5%	28.2%	?
Cc1ccc2[nH]c(=O)c(CN(Cc3cccnc3)Cc3nnnn3CC3CCCO3)cc2c1 (centres undefined)	-1.9%	?	10.0%	/	0.0%	/	/	/
NC1=NC(c2cccnc2)n2c(nc3ccccc32)N1 (centres undefined)	3.0%	4.7%	-3.2%	/	-4.0%	/	13.1%	-1.1%

From PubChem
